RGS16-Gao: modulates binding between human RGS16 and Galphao; bead-based flow cytometry RGS16-Galphao binding, fluorescence; actives lie on both sides; O15492+P09471; binding response (% of control), % at 10 µM; 220,000 tested, 0.38% active; AID 1441;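 active = below 25% or above 175%, edge rows of some plates excepted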;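 note: Galphao activated by GDP with aluminum fluoride before binding; 100% = wells without compound and 0% = beads without RGS; some results beyond the cut were filed as inactive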
Target sequence (O15492 whole entry, looked up): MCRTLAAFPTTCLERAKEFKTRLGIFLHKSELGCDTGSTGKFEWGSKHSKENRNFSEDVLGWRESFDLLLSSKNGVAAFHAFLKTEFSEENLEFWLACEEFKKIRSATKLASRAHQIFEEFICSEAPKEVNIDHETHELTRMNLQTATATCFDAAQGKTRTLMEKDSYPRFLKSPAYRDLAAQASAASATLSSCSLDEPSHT
Target sequence (P09471 whole entry, looked up): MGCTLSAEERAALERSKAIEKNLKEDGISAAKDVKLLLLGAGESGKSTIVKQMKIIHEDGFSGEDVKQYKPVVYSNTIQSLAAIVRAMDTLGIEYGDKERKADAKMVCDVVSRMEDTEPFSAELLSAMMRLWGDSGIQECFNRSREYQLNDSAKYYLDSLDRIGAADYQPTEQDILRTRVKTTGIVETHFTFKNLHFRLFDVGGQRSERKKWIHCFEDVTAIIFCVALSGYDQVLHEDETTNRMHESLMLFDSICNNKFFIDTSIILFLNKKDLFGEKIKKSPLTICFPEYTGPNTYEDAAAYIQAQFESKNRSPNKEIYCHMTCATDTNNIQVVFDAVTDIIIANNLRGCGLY
PKD1 inh: blocks activity of human protein kinase D1; Q15139; PKD1 kinase fluorescence polarization assay; inhibition, %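 (about 10 µM by stock and volumes)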; 200,000 tested, 0.056% active;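 active = inhibition of 50% or more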;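 note: controls were vehicle for no effect and a reference inhibitor for full effect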
Insulin prom inh: TRM-6 insulin promoter activity inhibition | inhibition, % at 2 µM | 130,000 tested, 0.9% active | AID 1273 | TRM-6 cells (human fetal islet line), insulin promoter-eGFP reporter, imaging; reporter expression induced with tamoxifen;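 active = inhibition above the mean plus 3 SD, with well images judged a real hit on visual review, cut at about 60% in these data, passing the limit was not always enough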
HSV replic up: HSV replication enhancement; HSV replication augmentation in cells, fold increase; maximum fold increase; 220,000 tested, 0.005% active; AID 1956;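 active = peak rise of 1.5-fold or more in the series; tested in PC3 cells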;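 note: first round at 10 µM; read as green reporter fluorescence; hits show the peak of a series up to 25 µM; 1 = signal of infected wells without compound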
GALR2 ag: GALR2 (human) receptor agonism; GALR2-expressing cells, agonist activation read-out; O43603; activation, %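 (tested at 5 µM)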; 140,000 tested, 0.48% active;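 active = above mean plus 3 SD of all compounds, about 5% in these data, not always enough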;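 note: 0% = vehicle buffer wells and 100% = reference agonist at full effect; tested in CHO reporter cells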
Target sequence (O43603 whole entry, looked up): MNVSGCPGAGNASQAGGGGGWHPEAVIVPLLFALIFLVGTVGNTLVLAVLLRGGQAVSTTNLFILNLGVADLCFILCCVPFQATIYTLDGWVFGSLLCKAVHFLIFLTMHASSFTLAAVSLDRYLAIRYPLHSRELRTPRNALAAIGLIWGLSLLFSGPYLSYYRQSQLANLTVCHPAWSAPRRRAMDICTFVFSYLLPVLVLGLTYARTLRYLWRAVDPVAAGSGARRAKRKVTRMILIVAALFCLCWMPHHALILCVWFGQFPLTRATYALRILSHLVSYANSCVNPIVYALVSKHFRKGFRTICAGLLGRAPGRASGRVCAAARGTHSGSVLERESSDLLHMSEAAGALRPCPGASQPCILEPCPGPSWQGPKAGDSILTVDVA
Insulin prom inh cell count: further read-out of Insulin prom inh, marked with its call; normalized cell count, %; measured here: cell count, toxicity; reference of the scale not given here;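 cells exposed to compound for 48 h; stained nuclei by imaging scaled within each plate; lower means fewer cells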
HSV replic up primary fold: second read-out of HSV replic up, no call of its own (marks repeat the call); fold increase; compound at 10 µM; measured here: primary screen fold increase 10 uM; tested in PC3 cells;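 GFP signal in the first replicate; 1 = infected wells without compound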
* marks the source's active call; other numbers are inactive results; i = inactive; nt = no result given; [ ] = dose if it differs, or a comment.

SMILES | RGS16-Gao | PKD1 inh | Insulin prom inh | Insulin prom inh cell count | HSV replic up | HSV replic up primary fold | GALR2 ag
COc1ccc(OC(=O)CCN2C(=O)C3C4C=CC(C4)C3C2=O)cc1 (configuration not stated) | 100 | -1 | nt | nt | i | 0.78 | nt
CCN(CC)C(=O)CCCC(=O)N(CC)CC | 101 | 14 | 3 | 155 | i | 1 | nt
S=C(Nc1ccc2c(c1)OCO2)N1CCN(Cc2ccco2)CC1 | 93 | -5 | nt | nt | i | 0.9 | nt
COc1ccccc1N1CC(C(=O)Nc2ccc3c(c2)OCO3)CC1=O (configuration not stated) | 104 | -6 | -36 | 108 | i | 0.94 | nt
Cc1ccc(-n2c(N)c(C#N)c(-c3ccc(Cl)cc3)c(C#N)c2=O)cc1 | 109 | -4 | 12 | 57 | i | 1.1 | -1.1
O=[N+]([O-])/C(N=Nc1ccccc1)=N\Nc1ccccc1 | 101 | -4 | nt | nt | i | 1 | nt
Cn1c(=O)n(C)c2cc(S(=O)(=O)Nc3ccccc3)ccc21 | 108 | 2 | nt | nt | i | 0.99 | nt
c1ccc(C(c2nnnn2C2CCCC2)N2CCN(c3ccccc3)CC2)cc1 (configuration not stated) | 103 | 0 | 48 | 155 | i | 1 | -1.3
COc1cc(/C=C/C(=O)N2CCN(c3n[nH]c(=O)[nH]c3=O)CC2)cc(OC)c1OC | 100 | -6 | -9 | 135 | i | 1 | nt
Cc1c(C(=O)N2CCCC2)sc(NC(=O)c2ccc(Cl)cc2)c1C#N | 71 | 6 | -151 | 90 | i | 1 | -1.3
CCC(C(=O)OC)n1c(-c2ccccc2)nc2ccccc2c1=O (configuration not stated) | 108 | 2 | nt | nt | i | 0.92 | nt
COC(=O)CS(=O)(=O)c1cccc2cccnc12 | 95 | -12 | -49 | 60 | i | 1 | nt
CC12CCC(c3c1nc1ccccc1[n+]3[O-])C2(C)C (configuration not stated) | 71 | -6 | -14 | 98 | i | 0.92 | 0.1
COCCCN1C(=O)c2[nH]nc(-c3cc(C)cc(C)c3O)c2C1c1ccc(O)c(OC)c1 (configuration not stated) | 92 | 2 | -62 | 213 | i | 0.72 | -0.3
O=C(NC(=S)Nc1ccc(S(=O)(=O)Nc2nccs2)cc1)c1cccnc1 | 102 | 1 | nt | nt | i | 0.99 | nt
COCCn1c(SCC(=O)c2c(-c3ccccc3)n(C)c3ccccc23)nnc1-c1ccncc1 | 103 | -3 | nt | nt | i | 1.1 | -0.1
COc1ccc(CCNC(=O)CSc2ccc(-c3ccco3)nn2)cc1 | 94 | -4 | nt | nt | i | 0.98 | nt
CCc1ccc(OCCOCC(O)CNC2CCCC2)cc1 (configuration not stated) | 99 | -6 | nt | nt | i | 0.9 | nt
Cc1ccc(Cl)cc1N1CCN(C(=O)CCC(=O)O)CC1 | 107 | 1 | nt | nt | i | 1.1 | -2.0
CCN(CC)C(=O)CS(=O)CC(=O)Nc1cc(OCCOC)c(Cl)cc1Cl (configuration not stated) | 101 | -2 | nt | nt | i | 0.94 | nt
CCOC(CNC(=O)CCc1c(C)nc2nc(C)nn2c1C)OCC | 100 | -7 | -79 | 155 | i | 0.92 | -2.0
CCn1nc(C(=O)Nc2ccc(S(=O)(=O)Nc3ncccn3)cc2)c2ccccc2c1=O | 100 | 0 | nt | nt | i | 1.1 | nt
CCOc1ccccc1C(=O)NCCCN1CCN(CCCNC(=O)c2ccccc2OCC)CC1 | 178 | 2 | nt | nt | i | 0.91 | -1.1
CCN1CCc2c(OCC(=O)N3CCC(C)CC3)cccc2C1=O | 103 | -1 | 17 | 156 | i | 1 | nt
C=CCOc1ccc(Oc2cc(C)nc(SC)n2)nn1 | 99 | -8 | 44 | 99 | i | 0.93 | -1.6
COc1ccc(-c2cc(-c3cccs3)nc3sc(C#N)c(N)c23)cc1 | 104 | -4 | 8 | 139 | i | 1 | -1.1
Cc1cc(C)nc(/N=C(\N)N2CCc3ccccc32)n1 | 98 | -1 | 25 | 116 | i | 1.1 | nt
Cc1nnc(-c2cnn(-c3ccccc3)c2N)n1Cc1cccc(C(F)(F)F)c1 | 105 | 0 | 14 | 106 | i | 0.77 | -2.5
CCc1ccc(C2N3CC4([N+](=O)[O-])CN2CC([N+](=O)[O-])(C3)C4(C)C)cc1 (configuration not stated) | 104 | 6 | nt | nt | i | 1.1 | 0.7
Cc1cc(/C=C2\C(=N)N3N=C(C(C)C)SC3=NC2=O)c(C)n1-c1ccccc1 | 98 | -1 | 44 | 97 | i | 1.1 | nt
COCCNC(=S)N1CCOCC1 | 97 | -8 | nt | nt | i | 1.1 | -0.8
O=C(c1ccco1)N1CCN(C(=O)C2CCN(S(=O)(=O)c3cnc[nH]3)CC2)CC1 | 112 | -14 | nt | nt | i | 1 | -1.0
COc1ccc2cc(/C=N/NC(=O)CN(c3ccccc3C)S(=O)(=O)c3ccccc3)c(Cl)nc2c1 | 94 | -2 | -43 | 128 | i | 0.74 | -0.7
c1ccc(C2CCC3(CC2)Oc2ccccc2C2CC(c4cccnc4)=NN23)cc1 (configuration not stated) | 99 | 6 | -34 | 125 | i | 0.87 | -0.5
C=CCn1cc(/C=N/NC(=O)COc2cccc3cccnc23)c2ccccc21 | 94 | 9 | nt | nt | i | 1.1 | -0.6
O=C(CCOc1ccccc1)N1CCN(S(=O)(=O)c2cccs2)CC1 | 107 | 0 | -16 | 138 | i | 0.92 | -2.5
CCOC(=O)N1CCN(C(=O)CSc2ccc3nnc(CCNC(=O)c4ccc(OC)cc4)n3n2)CC1 | 100 | 3 | 33 | 57 | i | 1.3 | nt
Cc1ccc(NC(=O)c2nc(C)n(-c3ccc([N+](=O)[O-])cc3)n2)cc1 | 99 | -3 | 0 | 62 | i | 0.93 | -0.4
COc1ccc(-n2c(Cc3cccn3C)nnc2SCC(=O)NCc2ccccc2Cl)cc1 | 99 | 4 | nt | nt | i | 0.83 | -0.5
Cc1ccc(-n2c(-c3cccc(C)c3)n[nH]c2=S)cc1 | 40 | -7 | 7 | 96 | i | 1.1 | -2.2
O=C(Cn1cc(C(=O)C2CC2)c2ccccc21)NCC1CCCO1 (configuration not stated) | 102 | -10 | -169 | 46 | i | 1 | -1.7
N#Cc1ccc(S(=O)(=O)N2CCCN(c3nc4ccc(Cl)cc4s3)CC2)cc1 | 90 | nt | nt | nt | i | 1.2 | nt
O=C(NCc1ccc(Cl)cc1)NCc1ccc(Cl)cc1 | 96 | 2 | 29 | 161 | i | 0.97 | nt
COc1ccc(NC(=O)Nc2cc(C)ccc2F)cc1 | 104 | 0 | 0 | 140 | i | 0.9 | -2.2
N/C(=N\OC(=O)Nc1ccc(Cl)c(Cl)c1)c1ncc(C(F)(F)F)cc1Cl | 108 | -8 | 9 | 137 | i | 0.87 | -3.2
O=C(O)/C=C/C(=O)Nc1ccc(OC(F)(F)Cl)cc1 | 101 | 10 | 18 | 123 | i | 0.83 | nt
Cc1cc(C)n2nc(C(=O)OCCOc3ccc(Br)cc3)nc2n1 | 102 | -1 | nt | nt | nt | nt | -0.9
COC(=O)c1cc(N2CCN(C)CC2)nc2ccccc12 | 96 | -9 | -22 | 102 | i | 1.2 | nt
COc1cc(CNC2CCCC2)c(Br)cc1OC1CCCC1 | 102 | 3 | -40 | 72 | i | 0.84 | nt
O=C(COC(=O)c1ccco1)NC1CCCCC1 | 99 | 6 | 29 | 179 | i | 1 | -3.3
COc1ccc(-c2noc(CCC(=O)NCc3ccco3)n2)cc1 | 97 | nt | nt | nt | i | 0.95 | nt
CCn1cc(C(=O)O)c(=O)c2cnc(N3CCN(C(=S)NC(=O)c4ccc(Cl)cc4)CC3)nc21 | 100 | nt | nt | nt | i | 1 | nt
COc1ccc(/C=N/NC(=O)c2ccc(Cl)cc2)cc1Cn1cc(Cl)cn1 | 89 | -6 | 6 | 70 | i | 0.95 | -1.4
CCCn1nnnc1SCC(=O)N1CCOCC1 | 107 | -10 | 83* | 142* | i | 1 | -2.4
COc1ccc(/C=C/C(=O)Nc2ccc(C(N)=O)cc2)cc1OC | 101 | nt | nt | nt | i | 0.93 | nt
CC(C)c1ccc(CNCc2ccccc2)cc1 | 104 | -14 | 33 | 97 | i | 0.99 | -1.2
N#Cc1c(N)nc2c(c1-c1cccs1)CCCC2 | 98 | 3 | nt | nt | i | 1 | -0.3
Cc1cc(C)nc(-n2nc(C)c(C3(O)C(=O)Nc4ccccc43)c2N)n1 (configuration not stated) | 102 | 8 | 32 | 66 | i | 0.96 | -0.8
CCOC(=O)c1c(N)sc(C(=O)OC)c1C | 104 | 3 | nt | nt | i | 0.91 | nt
Cn1nc(-c2ccccc2)c(CO)c1Oc1ccc(F)cc1 | 108 | -1 | -109 | 117 | i | 1 | nt

Given as labelled records: three of the compounds above
> CC12CCC(c3c1nc1ccccc1[n+]3[O-])C2(C)C (configuration not stated)
  RGS16-Gao = 71; PKD1 inh = -6; Insulin prom inh = -14; Insulin prom inh cell count = 98; HSV replic up = i; HSV replic up primary fold = 0.92; GALR2 ag = 0.1

> Cc1ccc(Cl)cc1N1CCN(C(=O)CCC(=O)O)CC1
  RGS16-Gao = 107; PKD1 inh = 1; Insulin prom inh = nt; Insulin prom inh cell count = nt; HSV replic up = i; HSV replic up primary fold = 1.1; GALR2 ag = -2.0

> Cc1cc(/C=C2\C(=N)N3N=C(C(C)C)SC3=NC2=O)c(C)n1-c1ccccc1
  RGS16-Gao = 98; PKD1 inh = -1; Insulin prom inh = 44; Insulin prom inh cell count = 97; HSV replic up = i; HSV replic up primary fold = 1.1; GALR2 ag = nt

Random excerpt: 6 entries already listed, in no set order.
SMILES | RGS16-Gao | PKD1 inh | Insulin prom inh | Insulin prom inh cell count | HSV replic up | HSV replic up primary fold | GALR2 ag
CCn1cc(C(=O)O)c(=O)c2cnc(N3CCN(C(=S)NC(=O)c4ccc(Cl)cc4)CC3)nc21 | 100 | nt | nt | nt | i | 1 | nt
CC(C)c1ccc(CNCc2ccccc2)cc1 | 104 | -14 | 33 | 97 | i | 0.99 | -1.2
Cc1cc(C)nc(-n2nc(C)c(C3(O)C(=O)Nc4ccccc43)c2N)n1 (configuration not stated) | 102 | 8 | 32 | 66 | i | 0.96 | -0.8
O=C(COC(=O)c1ccco1)NC1CCCCC1 | 99 | 6 | 29 | 179 | i | 1 | -3.3
COc1ccc(/C=N/NC(=O)c2ccc(Cl)cc2)cc1Cn1cc(Cl)cn1 | 89 | -6 | 6 | 70 | i | 0.95 | -1.4
CCCn1nnnc1SCC(=O)N1CCOCC1 | 107 | -10 | 83* | 142* | i | 1 | -2.4

Further structures.
SMILES | RGS16-Gao | PKD1 inh | Insulin prom inh | Insulin prom inh cell count | HSV replic up | HSV replic up primary fold | GALR2 ag
CCCCN(CCCC)S(=O)(=O)c1ccc(NC(=O)c2ccc([N+](=O)[O-])cc2Cl)cc1 | 304*[activator] | -6 | 30 | 58 | i | 0.98 | -1.7
CN(C)c1ccc(NC(=O)c2ccc(Cn3cc([N+](=O)[O-])cn3)cc2)cc1 | 85 | 3 | 50 | 113 | i | 0.88 | nt
COc1ccc(CCNC(=O)C2CC(c3c(Cl)cccc3Cl)=NO2)cc1 (configuration not stated) | 107 | 7 | 16 | 104 | i | 0.95 | 1.4
CCC(c1nnc(SCC(=O)NCCc2ccc(OC)c(OC)c2)n1Cc1ccccc1)N(C)C (configuration not stated) | 110 | 9 | nt | nt | i | 0.99 | nt
COCC(C)NC(=S)N1CCN(c2ccccc2Cl)CC1 (configuration not stated) | 107 | 2 | nt | nt | i | 1.1 | nt
CCOC(=O)CN1C(=O)C(O)(CC(=O)c2ccccn2)c2ccccc21 (configuration not stated) | 95 | 1 | nt | nt | i | 0.91 | -2.5
COc1ccc(C2CC(c3cccs3)=NN2C(=O)CSc2nnnn2C)cc1OC (configuration not stated) | 111 | -1 | nt | nt | i | 1 | nt
O=c1[nH]nnc2sc3c(c12)CCCC3 | 45 | 4 | 40 | 154 | i | 0.97 | 1.4
COc1cc(Nc2ccc(C)cc2)c([N+](=O)[O-])nc1[N+](=O)[O-] | 93 | -10 | -23 | 120 | i | 0.57 | -1.1
CC1(C)CC(=O)C(N=Nc2ccc(C(F)(F)F)cc2[N+](=O)[O-])=C(O)C1 | 96 | nt | nt | nt | i | 1 | nt
Cc1cnn(-c2nc(-c3cccs3)cc(C(F)(F)F)n2)c1 | 112 | -11 | nt | nt | i | 0.94 | -0.8
O=C(CCS(=O)(=O)c1ccccc1)Nc1nc(-c2ccc(F)cc2)cs1 | 99 | nt | nt | nt | i | 0.75 | nt
CCN1CCN(Cc2ccc(NC(=O)c3cc(NC(=O)c4ccc5n[nH]nc5c4)cc(OC)c3)cc2C(F)(F)F)CC1 | 101 | nt | nt | nt | i | 0.86 | nt
Cc1onc(-c2ccccc2)c1C(=O)NCCN1CCOCC1 | 100 | -7 | 3 | 114 | nt | nt | 0.3
NS(=O)(=O)c1ccc(CCNC(=O)Nc2ccc(Cl)cc2)cc1 | 99 | -1 | nt | nt | i | 0.98 | -1.4

Compound activity as filed in PubChem BioAssay.
